HNF4A DNA FP: change in binding of human HNF4A to DNA, primary screen, biochemical, fluorescence polarization, FITC-DNA | Hepatocyte nuclear factor 4-alpha (Homo sapiens), P41235 | 360,000 tested, 0.3% active | AID 1224865, 2016 | activity change, % at 10 µM | 1 h; in the data active = activity change above about 30%, passing the limit was not always enough;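 also: controls were the assay level and a saturating level of protein; the project sought stronger binding though the title names inhibitors; some compounds called inactive have numbers as strong as hits; positive values seem to mean higher polarization but the record does not say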
Target sequence (P41235 whole entry, looked up): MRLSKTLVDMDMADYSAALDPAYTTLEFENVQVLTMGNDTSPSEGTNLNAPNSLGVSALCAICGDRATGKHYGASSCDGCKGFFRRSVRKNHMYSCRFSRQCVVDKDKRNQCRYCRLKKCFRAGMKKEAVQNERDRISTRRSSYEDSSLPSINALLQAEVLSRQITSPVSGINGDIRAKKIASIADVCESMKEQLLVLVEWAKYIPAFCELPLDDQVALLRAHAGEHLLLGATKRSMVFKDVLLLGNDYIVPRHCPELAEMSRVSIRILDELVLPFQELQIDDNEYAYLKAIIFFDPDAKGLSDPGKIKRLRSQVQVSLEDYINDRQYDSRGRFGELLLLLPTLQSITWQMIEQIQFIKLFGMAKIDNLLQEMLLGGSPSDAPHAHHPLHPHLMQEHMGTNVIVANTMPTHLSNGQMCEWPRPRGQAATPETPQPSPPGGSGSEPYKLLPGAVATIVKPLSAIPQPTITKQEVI
LANA-H2B inh: blockers of LANA interaction with H2A/H2B – biochemical, FP readout, HTS, primary screen. Protein LANA1 (Human herpesvirus 8 type P (isolate GK18)), Q9QR71. cell-free LANA-H2A/H2B peptide, fluorescence polarization. inhibition, % (no concentration beside the values). 320,000 tested, 0.6% active; in the data active = inhibition mostly above about 10%, no sharp cut-off; inactive = mostly below about 6.7%;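 also: stock transfer was 7.5 nL into about 10 µL; 0% = median of vehicle wells and 100% = median of positive control wells; one replicate is shown; the record names a cut of 25% in any replicate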
Beta2AR agonist: beta2AR agonists driving receptor internalization, primary screen, cell-based, FAP fluorogen, flow cytometry; Beta-2 adrenergic receptor (Homo sapiens), P07550; response, % (no concentration beside the values); 340,000 tested, 0.43% active; AID 504454, 2011; Am2.2-beta2AR cells; reference of the scale not given here;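 active = response above a set limit, near 3 SD of response in nonfluorescent compounds, cut at about 42% in these data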;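 also: stock transfer was 100 nL into about 11 µL; a reference agonist was the positive control; negative values mostly stem from fluorescent compounds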
Target sequence (P07550 whole entry, looked up): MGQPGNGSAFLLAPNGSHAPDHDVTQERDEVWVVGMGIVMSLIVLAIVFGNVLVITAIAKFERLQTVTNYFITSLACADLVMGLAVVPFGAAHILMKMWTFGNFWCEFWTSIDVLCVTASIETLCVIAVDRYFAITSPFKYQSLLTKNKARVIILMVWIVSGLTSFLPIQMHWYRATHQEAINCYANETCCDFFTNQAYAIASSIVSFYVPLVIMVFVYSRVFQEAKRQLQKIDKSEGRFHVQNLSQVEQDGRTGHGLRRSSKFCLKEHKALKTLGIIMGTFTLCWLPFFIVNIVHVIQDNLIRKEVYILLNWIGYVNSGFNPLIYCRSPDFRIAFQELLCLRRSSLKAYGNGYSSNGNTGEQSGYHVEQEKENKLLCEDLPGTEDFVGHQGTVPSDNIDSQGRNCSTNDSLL
Calb FLC: C. albicans growth inhibition with fluconazole, primary screen, CaCi-2 strain, Alamar Blue fluorescence; C. albicans CaCi-2 (fluconazole-resistant clinical isolate) + fluconazole, 48 h; growth inhibition, % (test concentration not listed); 300,000 tested, 0.57% active;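 active = most replicates above 75%; inconclusive = exactly half above 75%; inactive = most below 75%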;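 also: all wells also contain fluconazole at 8 µg/ml as a sub-toxic cotreatment; 0% = median of DMSO wells and 100% = median of geldanamycin control wells; wells of about 8 µL received 7.5 nL stock; the first replicate is given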
Vif TR-FRET: inhibitors of Vif binding to APOBEC3G peptide, primary screen, biochemical, TR-FRET, GST-Vif 1-94, biotin-A3G peptide, dose response retest (AID 1117319); inhibition, %; hits with a dose series show IC50 in µM; 260,000 tested, 0.57% active; Virion infectivity factor (Human immunodeficiency virus type 1 group M subtype B (isolate …; TR-FRET GST-Vif / biotin-A3G peptide binding; higher % means a stronger effect; test concentration not given here; strong numbers were not always called active;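 active = above the screen mean plus three standard deviations and confirmed in dose response; inconclusive = results disagree or hit not tested in dose response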;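 also: Vif residues 1-94 fused to GST binding biotinylated APOBEC3G peptide 110-148; 0% = full assay without inhibitor and 100% = GST in place of GST-Vif; retest series ran down from 100 µM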
RanGTP-Imp inh: inhibitors of RanGTP-importin-beta interaction, primary screen, biochemical, FRET, CFP-Ran, YFP-importin-beta, homogeneous | Ran GTPase (GTP-bound) - importin-beta complex | inhibition, % (no concentration beside the values) | cell-free CFP-Ran/YFP-importin-beta FRET ratio | 300,000 tested, 1.1% active | AID 2216, 2009;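 active = most replicates above 15%; inconclusive = exactly half above 15%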;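 also: 0% = DMSO wells and 100% = Ran loaded with GDP instead of GTP; wells of about 40 µL received 100 nL stock; the first replicate is given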
ALR H2O2 inh: inhibitors of human ALR sulfhydryl oxidase, primary screen, biochemical, H2O2 detection, HRP-luminol luminescence, single point; FAD-linked sulfhydryl oxidase ALR (Homo sapiens), P55789; purified ALR, DTT oxidation; inhibition, % (concentration not given with the values); 290,000 tested, 3.8% active; AID 485317, 2010;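 active = mean and each replicate at 75% or more; inconclusive = only one of the two met; inactive = neither met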;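 also: stock transfer was 7.5 nL into about 7.5 µL; 0% = neutral wells and 100% = wells with inactivated enzyme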
Target sequence (P55789 whole entry, looked up): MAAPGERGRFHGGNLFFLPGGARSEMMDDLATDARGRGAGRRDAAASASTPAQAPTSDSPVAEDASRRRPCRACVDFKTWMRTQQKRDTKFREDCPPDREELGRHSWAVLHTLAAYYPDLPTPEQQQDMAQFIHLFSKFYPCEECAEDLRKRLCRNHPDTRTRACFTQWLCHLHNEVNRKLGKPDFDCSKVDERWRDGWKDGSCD
Starred values were filed as active, the others as inactive; ? = inconclusive; . = not tested or not shown. Random draw from the library. Share with any hit: about 6.3%.

A first look:
SMILES	HNF4A DNA FP	LANA-H2B inh	Beta2AR agonist	Calb FLC	Vif TR-FRET	RanGTP-Imp inh	ALR H2O2 inh
COC(=O)c1ccc(COc2ccc(/C=N/N3CCN(C)CC3)cc2)cc1	1.3	5.2	6	16	-2%	2.9	-22
CCOC(=O)c1ccc(S(=O)(=O)NCCNCc2ccccc2)cc1	2.1	-6.6	1	.	-6%	.	4

The whole of this part, repeating the preview:
SMILES	HNF4A DNA FP	LANA-H2B inh	Beta2AR agonist	Calb FLC	Vif TR-FRET	RanGTP-Imp inh	ALR H2O2 inh
COC(=O)c1ccc(COc2ccc(/C=N/N3CCN(C)CC3)cc2)cc1	1.3	5.2	6	16	-2%	2.9	-22
CCOC(=O)c1ccc(S(=O)(=O)NCCNCc2ccccc2)cc1	2.1	-6.6	1	.	-6%	.	4
COc1ccc(CCNC(=O)C2CCC(=O)N(CCc3ccc(OC)cc3)C2)cc1 (centres undefined)	-1.2	2.2	2	2	.	-2.9	-2
Cc1ccc(NC(=S)N(N)CCO)cc1	-0.5	-0.3	4	-11	0%	0.8	7
Cc1ccc(S(=O)(=O)c2c(N)n(NC(=O)c3ccco3)c3nc4ccccc4nc23)cc1	29	0.4	-1	-14	7%	.	-1
CC(=O)c1c(COC(=O)c2ccncc2)nc2ccccc2[n+]1[O-]	0.6	5.7	-7	5	25%	-3.7	-18
CCCCCC(=O)Nc1cc(N(C)C)nc2ccccc12	1.6	-3.2	-22	-25	28%	0.6	-17
Cc1cc(OCC(=O)N2CCN(c3ccc(F)cc3)CC2)c2c(C)cc(=O)oc2c1	-4.5	-2.6	-2	0	-6%	-0.7	2
O=[N+]([O-])c1ccc(Oc2ccc(S(=O)(=O)N3CCCCC3)cc2)cc1	-6.9	-2.0	5	4	.	4.8	-2
Cc1ccc(NC(=O)C(OC(=O)c2ccc(C=O)cc2)c2ccccc2)cc1Cl (centres undefined)	2.1	1.0	11	24	7%	-6.2	-2
Cc1cc(C(=O)NNC(=O)C(CCC(N)=O)NS(=O)(=O)c2ccc(Cl)cc2)c(C)o1 (centres undefined)	-1.6	0.4	6	.	-2%	.	3
Cc1cc(OC(F)F)ccc1NC(=S)NCCc1ccccc1	-2.0	0.0	-8	4	0%	4.0	-2
COc1cccc(OC(=O)c2cc3ccccc3oc2=O)c1	0.9	-3.1	3	?	15%	-1.4	.
COc1ccccc1NC(=O)C1CCCN(S(=O)(=O)c2c(C)noc2C)C1 (centres undefined)	1.2	-3.4	-2	2	.	-0.4	1
O=S1(=O)N[C@@H](Cc2ccccc2)COc2cc(Br)ccc21	-1.2	.	-9	.	-6%	.	.
COc1ccc(-c2cc(C(=O)Nc3ccccc3O)c3ccccc3n2)cc1	3.7	2.1	18	10	.	5.8	-23
CCOC(=O)c1cc(Sc2ccccc2N)cc(C(=O)OCC)n1	0.7	-4.2	5	-2	.	1.7	-12
NC(=O)c1ccc(NS(=O)(=O)c2ccc3ccccc3c2)cc1	-2.6	9.8	-2	-5	-4%	-3.8	.
COc1nc(Nc2ccc(OC)c(Cl)c2)nc(OC)n1	-1.7	5.6	6	13	-2%	1.4	-1
CN(CC(=O)Nc1ccc(F)cc1)C(=O)COc1ccc(C(=O)c2ccccc2)cc1	-0.1	1.7	-19	3	.	3.0	-7
Cn1ncc(Br)c1C(=O)Nc1ccc(F)cc1F	-2.6	1.4	-4	-9	-9%	-2.2	-7
C/C(=N\NC(=O)c1nnn(-c2nonc2N)c1CSc1ccccc1)c1cccnc1	-4.9	-15	-5	13	.	5.2	6
CCn1c(C)c(C(C)=O)c(SC)nc1=S	-5.2	-2.1	-10	20	1%	-4.7	4
CC(C)NC(=O)c1ccc2c(=O)n(CC3CCCO3)c(=S)[nH]c2c1 (centres undefined)	-0.2	-0.9	-7	-3	12%	1.5	27
Cc1ccc(S(=O)(=O)c2ccc(NN)cc2)cc1	-4.0	.	4	.	14%	.	.

Four of the entries above in order of their number in RanGTP-Imp inh, rising.
SMILES	LANA-H2B inh	Beta2AR agonist	Vif TR-FRET	RanGTP-Imp inh	ALR H2O2 inh
CCn1c(C)c(C(C)=O)c(SC)nc1=S	-2.1	-10	1%	-4.7	4
Cc1ccc(NC(=S)N(N)CCO)cc1	-0.3	4	0%	0.8	7
Cc1cc(OC(F)F)ccc1NC(=S)NCCc1ccccc1	0.0	-8	0%	4.0	-2
C/C(=N\NC(=O)c1nnn(-c2nonc2N)c1CSc1ccccc1)c1cccnc1	-15	-5	.	5.2	6

Following part.
SMILES	HNF4A DNA FP	LANA-H2B inh	Beta2AR agonist	Calb FLC	Vif TR-FRET	RanGTP-Imp inh	ALR H2O2 inh
O=C(C1CCCC1)N1CCN(S(=O)(=O)c2ccc(F)c(F)c2F)CC1	4.4	5.0	4	13	-3%	6.3	.
CCN1CCN(C(=O)c2ccc(Cn3c(=O)[nH]c4cc(OC)c(OC)cc4c3=O)cc2)CC1	-0.7	0.1	-12	0	1%	4.2	7
Cc1ccc(Sc2c(CO)c(-c3ccccc3)nn2C)cc1	1.2	6.8	8	-2	.	-1.0	-7
CCN1CCCC1CNC(=O)c1[nH]c2ccc(OC)cc2c1C (centres undefined)	1.0	0.7	8	3	-7%	4.9	-10
COc1ccc(Cl)cc1CC=NNC(=O)c1cccc(C)c1O	1.8	.	4	.	-4%	.	.
COc1ccc(/C(C)=N/NC(=O)CCC(=O)Nc2ccc(Cl)cc2Cl)c(OC)c1	-4.6	4.3	-10	3	-2%	-3.2	2
CC(C)(O)C(=O)NN(C(=O)c1ccccc1)c1cccc(Br)c1	0.6	-3.6	2	18	-3%	1.9	-18
COc1ccc(Oc2cccc(Cl)c2CNC(=O)CSCC(=O)O)cc1	-0.1	1.9	-3	4	7%	-4.9	-2
CCC(CC)c1nnc(NC(=O)C2CC(=O)N(c3ccc4c(c3)OCCO4)C2)s1 (centres undefined)	-2.2	.	6	-3	.	?	.
Cc1[nH]c(C)c(S(=O)(=O)N2c3ccccc3CC2C)c1C(=O)N1CCCCC1 (centres undefined)	-1.2	0.4	2	-4	-13%	7.8	-6
CC(C(=O)Nc1cccc(S(=O)(=O)N2CCOCC2)c1)N1CCN(c2ccc(F)cc2)CC1 (centres undefined)	-0.9	4.3	3	44	0%	-3.6	62
CCN(CC)S(=O)(=O)c1ccc(S(=O)(=O)Nc2c(C)nn(C)c2C)cc1	-0.5	-0.4	0	1	-1%	-0.6	-6
CN(C)c1cccc(F)c1C(=O)NC(=O)Nc1ccc(Cl)cc1	-2.7	.	-6	.	-10%	.	.
C=CCNc1oc(-c2cccs2)nc1C#N	0.8	2.4	-8	11	-6%	8.6	37
CCNC(=S)N1CCN(c2nc(-c3ccc(F)cc3)cs2)CC1	-0.8	0.3	7	-2	-9%	1.9	-13
O=C(NCc1cn2ccsc2n1)c1cccc(C(F)(F)F)c1	-1.1	-8.3	-4	1	-2%	3.2	-3
CCOC(=O)c1noc(C)c1C(=O)Nc1nc(C)cc(C)n1	-1.2	-0.3	-4	6	-1%	-2.2	-4
CCOc1ccc2ccccc2c1C(=O)N1CCOCC1	4.3	0.1	11	20	11%	?	-15
CSC1=NCCN1C(=O)Cc1ccc(Cl)cc1	5.6	2.4	6	-8	5%	5.8	-4
COCCCNC(=O)c1cccc(NC(=O)c2ccccc2)c1	0.6	1.7	7	-3	-7%	5.7	-4
CCn1nc(C(=O)NCc2nnc3ccccn23)c2ccccc2c1=O	2.2	.	-4	.	2%	.	.
CC(=O)Nc1ccccc1-c1nc2ccc(C(=O)N3CCN(c4ccccc4)CC3)cc2[nH]c1=O	3.0	4.1	8	9	11%	?	.
O=C(O)CC1(CC(=O)NCc2ccncc2)CCCCC1	0.3	-0.8	2	-5	.	-5.6	-3
COc1ccccc1NC(=O)COc1ccc(C(=O)NC2CCCc3ccccc32)cc1OC (centres undefined)	18	-0.9	-6	-8	-16%	4.1	-11
CCOc1ccc(C(=O)C[n+]2ccccc2C)cc1	-0.2	4.3	2	6	17%	4.7	5
SMILES	HNF4A DNA FP	LANA-H2B inh	Beta2AR agonist	Calb FLC	Vif TR-FRET	RanGTP-Imp inh	ALR H2O2 inh
O=[N+]([O-])c1ccccc1OCCN1CCOCC1	1.4	5.8	-2	13	9%	-0.5	-4
Cc1cccc(C(=O)Nc2sc3c(c2C#N)CCCCC3)c1	1.1	-1.0	3	-1	-6%	2.0	-3
Cc1cccc(N2CCN(S(=O)(=O)c3ccc4[nH]c(=O)ccc4c3)CC2)c1C	0.2	3.9	-1	-2	.	-2.4	.
COc1ccc(CNn2c(-c3ccccc3F)nc3ccccc3c2=O)cc1OC	2.9	2.2	-9	0	8%	4.0	-10
COc1ccc(NS(=O)(=O)c2cc(NC(=O)c3ccco3)ccc2N2CCCC2)cc1	-4.3	-1.0	-36	7	.	?	-1
CC(C)CCn1c(SCC(=O)N2CC(=O)Nc3ccccc32)nc2scc(-c3cccs3)c2c1=O	-0.8	-2.3	-2	2	-2%	1.4	0
COc1ccc(NC(=O)CN2CCCCC2)c([N+](=O)[O-])c1	0.7	0.5	-4	-1	2%	3.7	-4
CC1CC(C)CN(c2oc(-c3ccccc3F)nc2C#N)C1 (centres undefined)	-0.8	4.9	-3	1	-5%	1.8	-30
CSc1ncc2ncn(C3OC(CO)C(O)C3O)c2n1 (centres undefined)	0.7	1.7	4	2	3%	-0.7	0
O=C(NNC(=O)c1ccccc1C(=O)O)c1ccc(S(=O)(=O)N2CCCCC2)cc1	1.7	.	4	-3	.	2.9	.
Nc1c(S(=O)(=O)c2ccccc2)c2nc3ccccc3nc2n1/N=C/c1ccco1	14	-1.4	7	-5	?	0.4	-10
O=C(COC(=O)CCNS(=O)(=O)c1cccs1)Nc1ccccc1	2.6	-1.3	-3	.	.	.	.
CCOC(=O)N(Cc1ccccc1)C1CC1	4.3	.	-11	.	-1%	.	.
Cc1cc(C(=O)NC2CC2)c2ccccc2n1	-0.9	1.7	-2	-4	.	1.4	.
CC(NC(=O)C(=O)N1CCCCC1)C(c1cccs1)N1CCN(Cc2ccccc2)CC1 (centres undefined)	-0.5	-2.7	5	-12	0%	3.8	1
COc1cccc(N2[C@@H](CC(C)=O)c3ccccc3S2(=O)=O)c1	4.0	-2.6	-3	-3	.	5.5	-1
COc1ccc(-c2nnc3ccc(SCC(=O)N4CCCCCC4)nn23)cc1OC	4.7	1.4	-8	0	.	?	3
CC1=NN(C(=O)c2ccc(C)cc2)C(O)(C(F)(F)OC(F)(F)F)C1 (centres undefined)	4.1	-0.5	2	-19	-1%	0.0	18
O=c1cc(CN2CCN(S(=O)(=O)/C=C/c3ccccc3)CC2)c2ccc(O)cc2o1	-2.8	-0.4	3	-4	-5%	21*	-6
O=C(Nc1ccc(Br)cc1)c1cccc(S(=O)(=O)Nc2cnc3ccccc3c2)c1	-5.6	-1.4	47*	21	0%	-1.5	4
CSc1nc(-c2ccccc2)nn1S(=O)(=O)c1ccccc1	-2.9	-2.0	3	-1	-1%	5.1	.
Cc1ccccc1C(=O)N1CCN(c2ccc(NC(=O)c3ccco3)cc2)CC1	0.3	6.0	-15	-13	.	-4.1	.

Limited to ALR H2O2 inh and Beta2AR agonist, for two of the compounds above:
Molecule	ALR H2O2 inh	Beta2AR agonist
COCCCNC(=O)c1cccc(NC(=O)c2ccccc2)c1	-4	7
CCNC(=S)N1CCN(c2nc(-c3ccc(F)cc3)cs2)CC1	-13	7

Source: PubChem BioAssay (several laboratories)
